Assay outcomes as filed in PubChem BioAssay.
Methyltransferases – Primary Screen for Target Class Profiling of Small Molecule Inhibitors of Methyltransferases; purified enzyme, MTase-Glo SAH luminescence; active compounds read low; calls only at 40 µM; actives 3.9% (n = 25,000); AID 1745853, 2022; active = -50% or lower on at least one of six enzymes; inconclusive = the cases between; inactive = as a rule above -30% on all six;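 also: enzymes were COMT GAMT GNMT HNMT NNMT and PNMT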
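Each enzyme was reacted with SAM and its substrate, with compounds tested once at 40 uM; SAH formed was read by MTase-Glo luminescence.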
Calls only; i = inactive; u = inconclusive; + = active, no number; ! = not active in a repeat. % is scaled to controls: 0 for no effect and ±100 for the full control effect. This is a subset. The share of hits here may be higher or lower than overall.

SMILES | Methyltransferases
CCc1nnc([C@@H]2CC(F)(F)CN2C(=O)CCn2cccn2)o1 | i
COc1ccc(NS(=O)(=O)c2cc3c(cc2C)n(C)c(=O)n3C)cc1Cl | i
CC1(C(=O)NCc2ccccc2)Cn2c(cc3ccccc32)C(=O)N1CCc1cccs1 (stereo unspecified) | i
COc1ccc(Cl)cc1NC(=O)CSc1nnc2n(CC(C)C)c(=O)c3ccccc3n12 | i
COCCCNC(=O)c1cc2n(n1)CC(C)(C(=O)NC1CCCCCC1)N(C)C2=O (stereo unspecified) | i
Cc1cn([C@H]2C[C@H](O)[C@@H](CO)O2)c(=O)nc1N | u
CC(C)CNC(=O)c1ccc2c(=O)n(CC(C)C)c3nn(CC(=O)Nc4ccc(F)cc4)c(=O)n3c2c1 | i
CCCn1c(=O)c2ccc(C(=O)NCC(C)C)cc2n2c(=O)n(CC(=O)c3ccccc3)nc12 | i
COc1ccc2cc3n(c2c1)CC(C)(C(=O)NC1CCCC1)N(c1cccc(Cl)c1)C3=O (stereo unspecified) | i
Cc1ccc(S(=O)(=O)NCCc2nc(-c3ccc4c(c3)ncn4C)no2)cc1 | i
CCOc1cc(C)c(Cl)cc1S(=O)(=O)n1cnc2ccccc21 | i
COc1cc2c(cc1OC)-c1cc(=Nc3c(C)cc(C)cc3C)n(C)c(=O)n1CC2 | i
CC1(C(=O)NCc2ccccc2)Cn2c(cc3ccccc32)C(=O)N1CCc1ccc(Cl)cc1 (stereo unspecified) | i
CC1CCC2(OC1)OC1CC3C4CC=C5CC(O)CC(O[C@@H]6OC[C@@H](O)[C@H](O)[C@H]6O)C5(C)C4CCC3(C)C1(O)C2C (stereo partly specified) | i
O=C(C(Cc1cccc(C(F)(F)F)c1)NS(=O)(=O)c1cc(F)c2c(c1)CCNC2)N1CCCC1 (stereo unspecified) | i
O=C1CO[C@H]2CN(Cc3ccc4c(c3)OCO4)C[C@H]2N1Cc1ccc(F)cc1 | i
COc1ccc2cc3n(c2c1)CC(C)(C(=O)NCC1CCCO1)N(Cc1ccccc1)C3=O (stereo unspecified) | i
CCCn1c(=O)c2ccc(C(=O)NC3CCCC3)cc2n2c(=O)n(CC(=O)Nc3ccc(F)cc3)nc12 | i
Cc1ccc(CNC(=O)c2ccc3c(=O)[nH]c4c(C(=O)NC(C)C)sc(=S)n4c3c2)cc1 | +
CN(C1CCc2c(c3ccccc3n2CC(=O)O)C1)S(=O)(=O)c1ccc(F)cc1 (stereo unspecified) | u

A second format for some results above:
| SMILES | Methyltransferases |
| --- | --- |
| CCc1nnc([C@@H]2CC(F)(F)CN2C(=O)CCn2cccn2)o1 | i |
| COc1ccc(NS(=O)(=O)c2cc3c(cc2C)n(C)c(=O)n3C)cc1Cl | i |
| CC1(C(=O)NCc2ccccc2)Cn2c(cc3ccccc32)C(=O)N1CCc1cccs1 (stereo unspecified) | i |
| COc1ccc(Cl)cc1NC(=O)CSc1nnc2n(CC(C)C)c(=O)c3ccccc3n12 | i |
| COCCCNC(=O)c1cc2n(n1)CC(C)(C(=O)NC1CCCCCC1)N(C)C2=O (stereo unspecified) | i |
| Cc1cn([C@H]2C[C@H](O)[C@@H](CO)O2)c(=O)nc1N | u |
| CC(C)CNC(=O)c1ccc2c(=O)n(CC(C)C)c3nn(CC(=O)Nc4ccc(F)cc4)c(=O)n3c2c1 | i |
| CCCn1c(=O)c2ccc(C(=O)NCC(C)C)cc2n2c(=O)n(CC(=O)c3ccccc3)nc12 | i |
| COc1ccc2cc3n(c2c1)CC(C)(C(=O)NC1CCCC1)N(c1cccc(Cl)c1)C3=O (stereo unspecified) | i |
| Cc1ccc(S(=O)(=O)NCCc2nc(-c3ccc4c(c3)ncn4C)no2)cc1 | i |
| CCOc1cc(C)c(Cl)cc1S(=O)(=O)n1cnc2ccccc21 | i |
| COc1cc2c(cc1OC)-c1cc(=Nc3c(C)cc(C)cc3C)n(C)c(=O)n1CC2 | i |

Following part.
SMILES | Methyltransferases
O=C(NCC1CCN(c2cc(-c3ccccc3)[nH]n2)CC1)c1ccc2nc[nH]c2c1 | i
CN1c2cc(C(=O)N3CCN(c4ccccn4)CC3)ccc2C(=O)N2CCCCC21 (stereo unspecified) | i
O=c1[nH]c(=O)n([C@H]2C[C@H](O)[C@@H](CO)O2)cc1Br | i
Fc1ccccc1CN1CCOC[C@H](Oc2cccnc2)C1 | i
O=C(Cn1c(=O)oc2cc(S(=O)(=O)N3CCCC3)ccc21)Nc1ccc(F)c(Cl)c1 | i
O=C(NC[C@H]1CN(c2ccc(N3CCOCC3=O)cc2)C(=O)O1)c1ccc(Cl)s1 | u
COCCCNc1nc2c(S(=O)(=O)c3ccc(C)c(C)c3)nnn2c2ccccc12 | i
O=C(NC1CCCC1)c1ccc2c(=O)n(Cc3ccccc3)c3nn(Cc4ccccc4F)c(=O)n3c2c1 | i
CCc1cccc(N2C(=O)c3cc(-c4ccc(OC)cc4)nn3CC2(C)C(=O)NCc2ccccc2)c1 (stereo unspecified) | i
C[C@]1(OC(=O)/C=C/c2ccccc2)C[C@H](O)[C@]2(O)C=CO[C@@H](O[C@@H]3O[C@H](CO)[C@@H](O)[C@H](O)[C@H]3O)C12 (stereo partly specified) | i
N#CCc1ccc(O)cc1O[C@@H]1O[C@H](CO)[C@@H](O)[C@H](O)[C@H]1O | u
CCC(=O)O[C@]1(C(=O)CCl)[C@@H](C)C[C@H]2[C@@H]3C[C@H](F)C4=CC(=O)C=C[C@]4(C)[C@@]3(F)[C@@H](O)C[C@@]21C | u
O=C(Cn1nc2c(cc1=O)CCCCC2)NC1CCN(C(=O)c2cc3ccccc3[nH]2)CC1 | i
CCCn1c(=O)c2ccc(C(=O)NC3CCCCC3)cc2n2c(SCC(=O)NC(C)(C)C)nnc12 | i
Cn1c(=O)c2ccccc2n2c(CCC(=O)NCCc3ccccc3)nnc12 | i
COc1ccc(NC(=O)CSc2nnc3n(CC(C)C)c(=O)c4ccccc4n23)cc1 | i
CN(C)[C@H]1CCN(C(=O)c2ccc(SCCO)cc2)C[C@H]1CCC(=O)O | i
COc1ccc(S(=O)(=O)N2C[C@@H](F)C[C@H]2C(=O)N2CCOCC2)cc1 | i
COc1ccc(S(=O)(=O)N2CCCCC2c2nc(C3CC3)n[nH]2)cc1 (stereo unspecified) | i
O=C(NCc1ccc2c(c1)OCO2)c1ccc2c(=O)nc3c(-c4ccccc4F)n[nH]n3c2c1 | i
O=C(c1ccccc1OC(F)(F)F)N1CCC(c2n[nH]c(=O)n2-c2ccccc2)CC1 | i
C=CCn1c(=O)c2ccc(C(=O)NC(C)C)cc2n2c(=O)n(CC(=O)Nc3cccc(CC)c3)nc12 | i
CCc1cc2c(cc3n2CC(C)(C(=O)NC2CCCCCC2)N(C2CCCC2)C3=O)s1 (stereo unspecified) | i
CCOC(=O)c1cc2n(n1)CC(C)(C(=O)NC1CCC(C)CC1)N(Cc1ccccc1C)C2=O (stereo unspecified) | i
O=C(Cc1cccc(Cl)c1)NCCNC(=O)c1cccc(-c2ccsc2)c1 | i
CCCn1c(=O)c2ccc(C(=O)NC(C)CC)cc2n2c(=O)n(CC(=O)Nc3cccc(C)c3)nc12 (stereo unspecified) | i
COc1ccc([C@H]2CN(C(=O)C3CCN(C(=O)N(C)C)CC3)C[C@@H]2N)cc1 | i
O=c1cc(NCCCN[C@@H]2CCOc3c(Br)cc(Br)cc32)[nH]c2ccsc12 | u
CC(C)Cn1c(=O)c2ccccc2n2c(=O)n(CC(=O)NCc3ccc(Cl)cc3)nc12 | i
COc1ccccc1CCNC(=O)CCn1ccc2cc(S(=O)(=O)N3CCC(C)CC3)ccc21 | i
O=C(CSc1nnc2n(Cc3ccccc3)c(=O)c3ccccc3n12)Nc1ccc(Cl)cc1 | i
C=CCC1=C[C@]2(OC)[C@H](C)[C@@H](c3ccc4c(c3)OCO4)O[C@]2(OC)CC1=O | i
CN1C(=O)c2cc3ccccc3n2CC1(C)C(=O)NCC(=O)NCCc1ccccc1 (stereo unspecified) | i
COc1ccc2cc3n(c2c1)CC(C)(C(=O)NC1CCCC1)N(Cc1ccccc1F)C3=O (stereo unspecified) | i
COc1cc(/C=C/C(=O)O[C@H]2[C@H](O)[C@@H](CO)O[C@@]2(CO)O[C@H]2O[C@H](CO)[C@@H](O)[C@H](O)[C@H]2O)ccc1O | i
CC1CCN(C(=O)Cn2c(=O)oc3cc(S(=O)(=O)N4CCCCC4C)ccc32)CC1 (stereo unspecified) | i
CCC(C)NC(=O)c1ccc2c(=O)n(C)c3nnc(SCC(=O)Nc4ccccc4C)n3c2c1 (stereo unspecified) | i
C[S+](=O)([O-])N1CC2(CCN(Cc3c[nH]c4ccccc34)CC2)Cc2ccccc21 | i
N#Cc1cccc(C(=O)N2C[C@@H](Oc3cccnc3)C[C@H]2C(=O)NC2CC2)c1 | i
CC1(C)CCC2(C(=O)O)C(O)CC3(C)C(=CCC4C5(C)CCC(OC6OC(CO)C(O)C(O)C6OC6OC(CO)C(O)C(O)C6OC6OCC(O)(CO)C6O)C(C)(C)C5CCC43C)C2C1 (stereo unspecified) | i
O=C1c2cnc(-c3cc4ccccc4o3)nc2OCCN1CC1CC1 | i
Cc1nc(C#Cc2ccnc(Cl)c2)c(C)n1-c1ccc(OC(F)(F)F)cc1 | u
CN(CC(=O)Nc1ccc(Br)cc1F)S(=O)(=O)c1ccc2[nH]c3c(c2c1)CCCC3 | i
CN1C[C@H](O)C[C@H]1c1nnc2n1CCN(C(=O)c1cccnc1)CC2 | i
CC1=CC(=O)C2C(C)(C)CCCC2(C)C12CCC1(COC(=O)C1)O2 (stereo unspecified) | +
CCN1CCN(c2nc3c(S(=O)(=O)c4ccccc4)nnn3c3ccc(Cl)cc23)CC1 | i
COc1c(C)c(OCC=C(C)C)cc2c1COC2=O | i
CNC(=O)[C@H]1C[C@]2(CCCCNC2=O)N(C(=O)c2cccc(C#N)c2)[C@H]1c1ccco1 | i
NC(=O)[C@@H](Cc1c[nH]c2ccccc12)NC(=O)[C@@H]1CN(S(=O)(=O)c2ccccc2)CCN1C(=O)C1CCNCC1 | i
Cc1cc(C(=O)N2CCC(OCCOc3ccc(F)cc3)CC2)nn1C | i
COc1cc(C2c3cc(O)c(OC)cc3CC(CO)C2CO)ccc1O (stereo unspecified) | i
CN(C)S(=O)(=O)N1C[C@@H](Oc2cccnc2)C[C@H]1C(=O)N1CCOCC1 | i
O=C(Cn1ccc2cc(S(=O)(=O)N3CCCCC3)ccc21)NC1CC1 | i
Cc1ccccc1CN1C2=NCCN2C(=O)C2=C1CCN(Cc1ccccc1)C2 | i
CCN1C(=O)c2c(C(=O)NCCc3ccco3)ncn2CC1(C)C(=O)NC1CCCC1 (stereo unspecified) | i
Nc1ncn([C@@H]2O[C@H](CO)[C@@H](O)[C@H]2O)c(=O)n1 | i
CCc1cccc(N2C(=O)Cn3cccc3C2C(=O)NC2CCC(C)CC2)c1 (stereo unspecified) | i
COC1CCC12CCN(C(=O)c1ccc(C)s1)CC2 (stereo unspecified) | i
O=C(c1ccccc1)N1CCCC2(CC(c3cccc(C(F)(F)F)c3)=NO2)C1 (stereo unspecified) | i
CCC(C)NC(=O)c1ccc2c(=O)n(C)c3nnc(SCC(=O)Nc4cc(C)cc(C)c4)n3c2c1 (stereo unspecified) | i

Next section.
SMILES | Methyltransferases
CC1(C(=O)NCc2ccccc2)Cn2c(ccc2-c2ccco2)C(=O)N1Cc1ccccc1Cl (stereo unspecified) | i
CCc1ccccc1N1C(=O)c2cc(C(=O)OC)nn2CC1(C)C(=O)NC1CCCCCC1 (stereo unspecified) | i
Cc1ccc(CNC(=O)C2(C)Cn3nc(C(=O)NC4CCCC4)cc3C(=O)N2C)cc1 (stereo unspecified) | i
CC(C)Cn1c(=O)c2ccccc2n2c(CCC(=O)NCc3ccccc3)nnc12 | i
Cc1ccc(NC(=O)CSc2nnc3n(CCCOC(C)C)c(=O)c4ccccc4n23)cc1 | i
CCCn1c(=O)c2cc(F)ccc2n2c(SCC(=O)Nc3ccc4c(c3)OCO4)nnc12 | i
CSCc1noc(Cn2nc(C)c3ccccc3c2=O)n1 | i
CC1=NS(=O)(=O)c2cc(Cl)ccc2N1 | i
COc1cccc(CN2C[C@]34C=C[C@H](O3)C(C(=O)N3CCCCC3)C4C2=O)c1 (stereo partly specified) | i
Cc1cc2c(cc3n2CC(C)(C(=O)NC2CCCCC2)N(CC(C)c2ccccc2)C3=O)o1 (stereo unspecified) | i
O=C(CCc1nnc2n(Cc3ccc(F)cc3)c(=O)c3ccccc3n12)NCCN1CCOCC1 | i
CCC(C)NC(=O)c1ccc2c(=O)n(CCC(C)C)c3nn(Cc4ccc(F)cc4)c(=O)n3c2c1 (stereo unspecified) | i
CC1(C(=O)NC2CCCC2)Cn2c(cc3ccccc32)C(=O)N1Cc1ccc(F)cc1 (stereo unspecified) | i
CO[C@H]1C[C@@H]2CC[C@@H](C)[C@@](O)(O2)C(=O)C(=O)N2CCCC[C@H]2C(=O)O[C@H]([C@@H](C)C[C@@H]2CC[C@@H](O)[C@H](OC)C2)CC(=O)[C@H](C)/C=C(\C)[C@@H](O)[C@@H](OC)C(=O)[C@H](C)C[C@H](C)/C=C/C=C/C=C/1C | i
CC1NC(=O)CCCNC(=O)C(Cc2c[nH]c3ccccc23)NC(=O)C(C)NC(=O)C(C(C)C)NC(=O)C(C(C)c2ccccc2)NC(=O)C(C(C)C)NC1=O (stereo unspecified) | i
CC(C)c1cc2n(n1)CC(C)(C(=O)NC1CCCCCC1)N(Cc1cccc(F)c1)C2=O (stereo unspecified) | i
COc1ccc(-c2cc3nc4c(c(=O)n3[nH]2)CN(C(=O)CN(C)S(=O)(=O)c2cnc[nH]2)CC4)cc1 | +
O=C1CC2(CCN(S(=O)(=O)c3cccs3)CC2)Oc2ccccc21 | i
CCCN1C(=O)c2c(C(=O)NCc3ccc(OC(C)C)cc3)ncn2CC1(C)C(=O)NCCC(C)C (stereo unspecified) | i
COc1ccc(CCc2nc3c(C)c(-c4c(C)noc4C)c(C)cc3n2CCN2CCOCC2)cc1 | +!
CCCOc1ccc(C2NC(C(=O)O)Cc3c2[nH]c2ccccc32)cc1OC (stereo unspecified) | i
